Bioassay records: PubChem BioAssay, National Center for Advancing Translational Sciences (NCATS)
Cruzain noTriton: inhibitors of Trypanosoma cruzi cruzain without detergent; purified cruzain, Z-FR-AMC fluorescence, no detergent; Potency, µM, for the others: max response, negative = inhibition, usual class: inhibitors; 200,000 tested, 2.3% active; AID 1476;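 also: plate controls were enzyme without inhibitor for no effect and buffer without enzyme for full effect; nearly all actives have a fitted effect of over 40% in size; top concentration of the series not given in the record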
Target sequence (P25779 123-467 limits assumed): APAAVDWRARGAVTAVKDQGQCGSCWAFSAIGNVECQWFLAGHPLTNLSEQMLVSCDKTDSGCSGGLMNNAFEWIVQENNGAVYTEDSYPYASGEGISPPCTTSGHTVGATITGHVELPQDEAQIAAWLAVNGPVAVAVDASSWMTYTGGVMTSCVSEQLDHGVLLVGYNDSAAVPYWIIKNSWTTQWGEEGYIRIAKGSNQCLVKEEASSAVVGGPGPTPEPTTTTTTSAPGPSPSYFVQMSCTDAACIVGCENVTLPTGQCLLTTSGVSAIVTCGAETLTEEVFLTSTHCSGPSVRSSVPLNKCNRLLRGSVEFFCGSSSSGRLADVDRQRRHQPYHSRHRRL
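Detergent-free condition (0.00005% Triton X-100) in acetate buffer pH 5.5 with DTT. 1.5 nM enzyme and compound were pre-mixed 15 min, then 2 uM Z-FR-AMC substrate added; reaction progress from fluorescence change between first and third reads (60 s).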
Cruzain inh Det: cruzain (T. cruzi) inhibition with detergent; purified cruzain, Z-FR-AMC fluorescence, 0.01% Triton; P25779; 200,000 tested, 0.43% active; Potency, µM, inactives show max response, negative = inhibition, most hits filed as inhibitors;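 also: plate controls were neutral wells for no effect and buffer without enzyme for full effect; nearly all actives have a fitted effect of over 40% in size; top concentration of the series not given in the record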
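Read-out: AMC fluorescence (360 nm excitation, 450 nm emission), four reads over 2 min, first-to-third difference used. Conditions: cruzain 1.5 nM, Z-FR-AMC 2 uM, pH 5.5 acetate, 5 mM DTT, 0.01% Triton X-100.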
StopGo reporter: lowers the luciferase signal of an FMDV 2A StopGo reporter; 410,000 tested, 1.2% active; human cells with a luciferase reporter of 2A StopGo recoding; control for the full effect not named in the record; AID 1159524; Potency, µM (highest dose often 57.9 µM), for the others: at the top dose signal change, negative = less light; active = well fitted falling curve with a large enough effect; inconclusive = small, poorly fitted or top-dose-only effect; inactive = no such curve, though single readings can be large or run the other way; tested in HEK293T cells; also: nearly all actives have a fitted effect of over 45% in size; luciferase light after 4 h
* = called active by the depositor; ? = inconclusive; & = joins results of further samples; [ ] = dose if it differs, or a comment. Unless noted, calls follow the shape of the dose curve; as a rule, active = well fitted curve in the direction sought with a large enough effect; inconclusive = small, poorly fitted or top-dose-only effect, or another doubt; inactive = no such curve, though single readings can be large; an effect the other way counts as inactive or inconclusive. Unless noted, % is scaled to controls: 0 for no effect and ±100 for the full control effect; potency is read from the fitted curve at half-maximal effect. Some of the compounds tested, so the mix of outcomes need not match the whole.

Value order: Cruzain noTriton	Cruzain inh Det	StopGo reporter
1	FC(F)(F)c1ccccc1-c1cc(NCc2cccs2)ncn1
→ 7%	-1.0%	-6%
2	Cn1cccc1C(=O)N1CCC2(CCCN(c3ccc(-c4ccccc4)cc3)C2)CC1
→ 20%	-4.5%	-11%
3	COC1=CC(=O)C(C(=O)c2ccccc2)=CC1=O
→ -26%	-6.5%	40%[activator]
4	CN1CCN(c2ncc3ncc(=O)n(-c4ccccc4)c3n2)CC1
→ 20µM*	?	-4%
5	COc1cccc(Nc2ncc3nc(-c4ccccc4)c(=O)n(Cc4cccs4)c3n2)c1
→ 5µM*	0.7%	-2%
6	Cc1cccc(CNc2nc(-c3cccc(NS(C)(=O)=O)c3)nc3ccccc23)c1
→ -22%	-8.3%	-6%
7	Cc1cnc(CNc2cc(-c3ccc(N(C)C)cc3)ncn2)cn1
→ -4%	-9.1%	17%
8	Cn1cc(-c2nc3cnc(Oc4ccccc4)nc3n(C)c2=O)c2ccccc21
→ 9%	-2.2%	-10%
9	O=C(c1cc(C(F)(F)F)cc(C(F)(F)F)c1)N1CCC[C@@]2(CCN(c3ccccn3)C2)C1
→ 10%	-3.4%	?
10	O=C(OC1Cc2c(O)cc(O)cc2OC1c1cc(O)c(O)c(O)c1-c1c(C2Oc3cc(O)cc(O)c3CC2O)cc(O)c(O)c1O)c1cc(O)c(O)c(O)c1 (stereo not drawn)
→ -14%	-14%	-9%
11	COc1ccc(C(=O)N2CCC3(CC2)CN(c2ccncc2)C3)cc1
→ -11%	0.4%	-4%
12	COC(=O)N1CCC2(CC1)CN(c1ccncc1)C2
→ -5%	-0.8%	-8%
13	CC(=O)OC1CCC23CC1(C)CCC2C(C)(C)CC3OC(C)=O (stereo not drawn)
→ 18%	11%	-8%
14	CN(C)c1nc(-c2cccc(NS(C)(=O)=O)c2)nc2ccccc12
→ 4%	0.1%	-6%
15	CC1=CC2C(C)(C)CC(=O)C[C@]2(C)CC1COc1ccc2c(c1)CC(=O)C=C2 (stereo partly drawn)
→ -13%	-7.8%	0%
16	Cn1cccc1C(=O)N1CCC2(CCCN(c3ccccn3)C2)CC1
→ 3%	-3.4%	-5%
17	COc1ccc2[nH]cc(CCNc3nc(-c4c(C)noc4C)nc4ccccc34)c2c1
→ -6%	-7.3%	-16%
18	COc1ccc2[nH]cc(CCNc3ncncc3-c3ccoc3)c2c1
→ -2%	-1.0%	?
19	N#Cc1ccc(CN2CCC3(CC2)CCN(C(=O)c2ccncc2)CC3)cc1
→ 8%	7.2%	-16%
20	CCCCC[C@H](O)/C=C/C=C\C=C\C=C\[C@@H](O)[C@@H](O)CCCC(=O)O
→ -1%	1.4%	13%[0.463 µM]
21	COc1ccccc1-c1cncnc1N(C)Cc1ccco1
→ -1%	-0.1%	1%
22	Cn1cccc1C(=O)N1CCC2(CC1)CN(C(=O)Nc1cccc(F)c1)C2
→ -1%	3.0%	0%
23	C[C@@]12CC[C@@H]3c4ccc(O)cc4C[C@H](CCCCCCCCCS(=O)CCCC(F)(F)C(F)(F)F)[C@H]3[C@@H]1CC[C@@H]2O (stereo partly drawn)
→ ?	-1.4%	0%
24	CCOC(=O)[C@H](N)/C=C(\C)CP(=O)(O)O
→ 4%	3.3%	-21%
25	CCNc1ncc2nc(-c3cccc(C#N)c3)c(=O)n(Cc3cccc(OC)c3)c2n1
→ -3%	3.7%	-7%
26	CC(=O)NCCNc1nc(-c2cccc(NS(C)(=O)=O)c2)nc2ccccc12
→ -2%	-2.7%	-10%
27	COc1ccccc1CNc1cc(-c2ccoc2)ncn1
→ -30%	-2.6%	10%
28	COc1ccc(-c2nc3cnc(N4CCOCC4)nc3n(C3CC3)c2=O)cc1
→ -1%	4.1%	-7%
29	COc1ccccc1-c1cncnc1NCc1cnc(C)cn1
→ -8%	8.0%	-19%
30	O=C(c1cnccn1)N1CCC[C@@]2(CCN(c3ccccc3)C2)C1
→ 11%	-0.3%	-7%
31	COc1ccc(C2CC(=O)c3c(O)cc(O[C@H]4OC(COC5OC(C)C(O)C(O)[C@@H]5O)C(O)C(O)C4O)cc3O2)cc1O (stereo partly drawn)
→ 0%	1.3%	11%
32	COc1ccc2[nH]cc(CCNc3ncncc3-c3ccccc3C)c2c1
→ 10%	-0.4%	20µM*
33	COC(=O)Oc1ccccc1C(=O)O
→ 5%	2.2%	31%[activator]
34	CC1(C)N([O-])[N+](=O)C1(C)Br (stereo not drawn)
→ 7%	4.6%	-4%
35	CS(=O)(=O)N1CCC2(CCN(C(=O)Nc3cccc(C#N)c3)CC2)CC1
→ -15%	1.2%	-4%
36	CC(=O)OC1C2CCC3C1(CC(O)[C@@]1(O)[C@@H](CC(O)C1(C)C)[C@]3(C)O)C[C@@]2(C)O (stereo partly drawn)
→ -4%	1.3%	-12%
37	COc1ncc2nc(-c3ccccc3)c(=O)n(C)c2n1
→ -5%	-8.6%	5%
38	COc1ccccc1CNc1nc(-c2cccnc2)nc2ccccc12
→ -5%	-1.8%	-25%
39	CCN(CC)Cc1ccc(Nc2ccnc3cc(Cl)ccc23)cc1O
→ ?	-17%	-12%
40	Cc1cccc(CNc2nc(-c3ccc(C(=O)N(C)C)cc3)nc3ccccc23)c1
→ -3%	-7.0%	3%
41	Cc1noc(C)c1C(=O)N1CCC2(CC1)CCN(c1cccc(-c3ccccc3)c1)CC2
→ 9%	0.2%	?
42	CO/N=C1\CN(c2nc3c(cc2F)c(=O)c(C(=O)O)cn3C2CC2)CC1CN (stereo not drawn)
→ ?	-4.8%	-9%
43	CN(C)c1ccc(-c2cc(N(C)Cc3ccco3)ncn2)cc1
→ -19%	-14%	-25%
44	CCNc1ncc2nc(-c3cc(F)cc(F)c3)c(=O)n(CCc3ccccc3)c2n1
→ -11%	-8.6%	0%
45	CN(C)C(=O)c1ccc(-c2nccc(NCc3cccs3)n2)cc1
→ 3%	-0.5%	31%[activator]
46	O=C(O)c1nc2cc(Cl)c(Cl)cc2[nH]c1=O
→ -4%	0.2%	0%
47	Cn1c(=O)c(-c2cc(F)cc(F)c2)nc2cnc(N3CCOCC3)nc21
→ 9%	2.7%	-11%
48	O=C(O)C(Cl)Cl
→ -6%	3.6%	0%
49	CN1CC[C@@]2(CCCN(C(=O)c3cc(C(F)(F)F)cc(C(F)(F)F)c3)C2)C1
→ -5%	3.2%	-8%
50	Ic1cncc(OC[C@@H]2CCN2)c1
→ 11%	-1.0%	-20%
51	COc1ccccc1N1CCN(CCn2c(=O)[nH]c3c([nH]c4ccccc43)c2=O)CC1
→ -6%	-2.0%	-16%&-1%&-4%
52	c1ccc(C(c2ccccc2)N2CCC3(CCNCC3)CC2)cc1
→ -16%	2.5%	-18%
53	COc1ncc2nc(-c3cc(F)cc(F)c3)c(=O)n(C)c2n1
→ -9%	-0.9%	-14%
54	Cc1cccc(CNc2cc(-c3cccc(NS(C)(=O)=O)c3)ncn2)c1
→ -5%	-16%	-27%
55	CN(C)Cc1ccccc1-c1nc(NCc2ccccc2)c2ccccc2n1
→ -3%	1.1%	?
56	C[N+]1(C)CCc2cc3c(cc2[C@@H]1[C@@H]1C(=O)Oc2c1ccc1c2OCO1)OCO3
→ 0%&1%	1.2%&1.0%	-22%&1%
57	Cn1cccc1C(=O)N1CCC2(CC1)CCN(C(c1ccccc1)c1ccccc1)CC2
→ 3%	-2.4%	-19%
58	COc1cccc(-c2cncnc2NCc2ccccc2OC)c1
→ 2%	1.3%	-13%
59	O=C(Nc1cccc(F)c1)N1CC2(CCN(C(=O)c3ccco3)CC2)C1
→ -2%	0.3%	8%
60	CCCCCOc1c(OC)ccc2cc(C(=O)NCc3ccc4c(c3)OCO4)c(=O)[nH]c12
→ 3%	3.4%	-5%

Next records.
Value order: Cruzain noTriton	Cruzain inh Det	StopGo reporter
61	CCCCCCCC/C=C\CCCCCCCC(=O)N[C@@H](CO)Cc1ccc(O)cc1
→ ?	-4.6%	0%
62	COc1ccc(CC2NC[C@H](O)[C@H]2OC(C)=O)cc1 (stereo partly drawn)
→ -4%	6.3%	?
63	CN1CCN(c2ncc3nc(-c4ccc(Cl)cc4)c(=O)n(C4CC4)c3n2)CC1
→ ?	-7.8%	-14%
64	C=C1CCC2[C@](C)(CO)[C@H](O)CC[C@@]2(C)[C@@H]1C/C=C1/C(=O)OC[C@H]1O (stereo partly drawn)
→ -13%	2.1%	-15%
65	CN(C)Cc1ccccc1-c1cncnc1Nc1ccc(F)cc1
→ 12%	0.5%	-3%
66	CN1Cc2c(ccc3c2OCO3)C2C(O)Cc3cc4c(cc3C21)OCO4 (stereo not drawn)
→ 0%&-7%	-3.2%&3.1%	-2%
67	CC(C)NC(=O)N1CCCC2(CCN(C(=O)c3ccco3)CC2)C1
→ 4%	0.8%	-6%
68	C[C@@H]1c2ccccc2CN1CC1=NCCN1
→ 5%	2.0%	-24%
69	Cc1cnc(CNc2ncncc2-c2ccccc2C(F)(F)F)cn1
→ 6%	7.7%	-19%
70	COc1cccc(Cn2c(=O)cnc3cnc(OCc4ccccc4)nc32)c1
→ -13%	-5.8%	-18%
71	O=C(c1cc(C(F)(F)F)cc(C(F)(F)F)c1)N1CCC2(CCN(Cc3ccncc3)CC2)CC1
→ 10%	5.9%	-4%
72	CC(=O)NCCNc1ncnc2ccc(-c3ccccc3C#N)cc12
→ -2%	-2.4%	-27%
73	CCCCCCCCCCCCCCCCOC[C@H](COP(=O)([O-])OCC[N+](C)(C)C)OC(C)=O
→ ?	-3.8%	-4%[6.7 µM]
74	O=C1c2ccccc2C(=O)c2ccccc21
→ -7%	-9.3%	1%
75	Cc1nc2cnc(Nc3ccccc3)nc2n(Cc2cccs2)c1=O
→ 1%	0.7%	-22%
76	O=c1cnc2cnc(OCc3ccccc3)nc2n1CCc1ccccc1
→ -4%	-4.1%	-20%
77	CC1CCC(C(C)[C@H]2CCC3C4CC(=O)C5C[C@@H](O)CC[C@]5(C)C4CC[C@@]32C)=NC1 (stereo partly drawn)
→ 6%	3.0%	-2%
78	COc1cccc(-c2nccc(NCc3cccnc3)n2)c1
→ 14%	-4.0%	2%
79	Cc1noc(C)c1-c1nc(N(C)C)c2ccccc2n1
→ 9%	7.1%	0%
80	CS(=O)(=O)c1ccc(C(O)C(CO)NC(=O)C(Cl)Cl)cc1 (stereo not drawn)
→ -1%	0.2%	16%
81	COCCn1c(=O)c(-c2cc(F)cc(F)c2)nc2cncnc21
→ 0%	-0.8%	-14%
82	CCNc1ncc2nc(CCc3ccccc3)c(=O)n(-c3ccc(OC)cc3)c2n1
→ 2%	1.4%	-10%
83	CCCCCC(=O)/C=C/C=C\CCCCCCCC(=O)O
→ 4%	2.9%	-5%[0.463 µM]
84	COC(=O)N1CCC[C@@]2(CCN(C(=O)Nc3ccccc3)C2)C1
→ -5%	5.3%	15%

Already shown: entries from further up.
Value order: Cruzain noTriton	Cruzain inh Det	StopGo reporter
61	CCCCCCCC/C=C\CCCCCCCC(=O)N[C@@H](CO)Cc1ccc(O)cc1
→ ?	-4.6%	0%
62	COc1ccc(CC2NC[C@H](O)[C@H]2OC(C)=O)cc1 (stereo partly drawn)
→ -4%	6.3%	?
63	CN1CCN(c2ncc3nc(-c4ccc(Cl)cc4)c(=O)n(C4CC4)c3n2)CC1
→ ?	-7.8%	-14%
64	C=C1CCC2[C@](C)(CO)[C@H](O)CC[C@@]2(C)[C@@H]1C/C=C1/C(=O)OC[C@H]1O (stereo partly drawn)
→ -13%	2.1%	-15%
65	CN(C)Cc1ccccc1-c1cncnc1Nc1ccc(F)cc1
→ 12%	0.5%	-3%
66	CN1Cc2c(ccc3c2OCO3)C2C(O)Cc3cc4c(cc3C21)OCO4 (stereo not drawn)
→ 0%&-7%	-3.2%&3.1%	-2%
67	CC(C)NC(=O)N1CCCC2(CCN(C(=O)c3ccco3)CC2)C1
→ 4%	0.8%	-6%
68	C[C@@H]1c2ccccc2CN1CC1=NCCN1
→ 5%	2.0%	-24%
69	Cc1cnc(CNc2ncncc2-c2ccccc2C(F)(F)F)cn1
→ 6%	7.7%	-19%
70	COc1cccc(Cn2c(=O)cnc3cnc(OCc4ccccc4)nc32)c1
→ -13%	-5.8%	-18%
71	O=C(c1cc(C(F)(F)F)cc(C(F)(F)F)c1)N1CCC2(CCN(Cc3ccncc3)CC2)CC1
→ 10%	5.9%	-4%
72	CC(=O)NCCNc1ncnc2ccc(-c3ccccc3C#N)cc12
→ -2%	-2.4%	-27%
73	CCCCCCCCCCCCCCCCOC[C@H](COP(=O)([O-])OCC[N+](C)(C)C)OC(C)=O
→ ?	-3.8%	-4%[6.7 µM]
